Source: PubChem BioAssay (ICCB-Longwood Screening Facility, Harvard Medical School)
CapD inh: Bacillus anthracis CapD inhibitors, primary screen, biochemical, fluorescence intensity; z-score (no concentration beside the values); AID 492967, 2010; 140,000 tested, 0.23% active; purified CapD enzyme, fluorescence intensity read-out; stronger effect = lower value; some hits fall short of the stated cut; CapD gamma-glutamyltranspeptidase (Bacillus anthracis Ames Ancestor);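 active = z-score under -4 in either of two replicates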;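 note: stock transfer was 100 nL into about 40 µL; score is relative to mean and spread of the plate; one replicate is shown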
AID504770: growth inhibition of E. coli YBA685, primary screen, V. cholerae RctB inhibitors. AID 504770, 2011. z-score (concentration not given with the values). 130,000 tested, 0.27% active. E. coli YBA685 rctB-dependent plasmid, OD600 growth, 3 h; stronger effect = lower value;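 active = z-score under -2 on both plates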;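 note: wells of about 30 µL received 100 nL stock; score is relative to mean and SD of the test wells; the first replicate is given; strong numbers were not always called active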
* = called active by the depositor; . = not tested or not shown; & = joins results of further samples.

SMILES | CapD inh | AID504770
Cn1cc(C(=O)N2CCCc3ccccc32)c(-c2ccc3c(c2)OCCCO3)n1 | . | 0
S=C(NCC1CCCO1)N1CCN(C2CCCCC2)CC1 (stereo not given) | 0.2 | 2
CCOC(=O)c1[nH]c2ccccc2c1NC(=O)C(C)C | 21 | -0.8
C=CCc1cc(/C=C2\C(=O)NC(=S)N(c3ccc(OCC)cc3)C2=O)cc(OCC)c1O | -0.38 | .
O=C(Nc1cccc(F)c1)C(Cc1ccccc1)n1cccc1 (stereo not given) | -0.46 | 0.05
CC(=O)Nc1ccc(OCC(O)CN2CCN(c3ccc(C)c(Cl)c3)CC2)cc1 (stereo not given) | . | 0.45
COC(=O)C(C(=O)OC)c1ccc(C#N)c(C#N)c1 | 1.4 | 0.05
CCOC(=O)Nc1ccc2c(c1)N(C(=O)CN(C)C)c1ccccc1S2 | -0.35 | -0.4
CC(=O)C1=NN(c2ccccc2)C(c2ccccc2OCc2c(Cl)cccc2Cl)N1C(C)(C)C (stereo not given) | 0.01 | .
O=C1C(=O)N(c2ccccn2)C(c2ccc(F)cc2)/C1=C(\O)c1ccc(Br)cc1 (stereo not given) | -0.02 | .

Some of the entries so far, comma-delimited.
mol,CapD inh,AID504770
COC(=O)C(C(=O)OC)c1ccc(C#N)c(C#N)c1,1.4,0.05
O=C1C(=O)N(c2ccccn2)C(c2ccc(F)cc2)/C1=C(\O)c1ccc(Br)cc1 (stereo not given),-0.02,.
S=C(NCC1CCCO1)N1CCN(C2CCCCC2)CC1 (stereo not given),0.2,2
CCOC(=O)c1[nH]c2ccccc2c1NC(=O)C(C)C,21,-0.8
Cn1cc(C(=O)N2CCCc3ccccc32)c(-c2ccc3c(c2)OCCCO3)n1,.,0

Other entries follow.
SMILES | CapD inh | AID504770
CCOC(=O)N1CCC(NC(=O)c2cc(C(=O)NCc3cccc(Cl)c3)ccc2CO)CC1 | -0.38 | 0.35
c1cc(C2CCNCC2)ccn1 | . | -0.1
S=C(NCCN1CCOCC1)c1ccc(Cl)cc1 | -0.32 | -0.05
COc1ccccc1NC(=O)CSc1nc2c(oc3ccccc32)c(=O)n1Cc1ccc(F)cc1 | 3.3 | 1
CC(=O)NC(Cc1c[nH]c2ccccc12)C(=O)N1CCN(c2cccc(C(F)(F)F)c2)CC1 (stereo not given) | . | -0.05
O=C1C2C3CC4C5C3C1C5C1(OCCO1)C42 (stereo not given) | . | -0.6
CCCCC#CCCOC(=O)NNC(=O)/C=C/c1ccc(F)cc1Cl | 1.7 | .
Cc1ccc(C)c(NC(=O)C(Cc2c[nH]c3ccccc23)NC(=O)OCc2ccccc2)c1 (stereo not given) | -0.48 | .
O=C(O)c1ccccc1C(O)c1ccccc1 (stereo not given) | . | 0.35
CN1C(=O)C2C=CC=CC2NC1=S (stereo not given) | . | 0.5

Quoted at random: six compounds from above, in no set order.
SMILES | CapD inh | AID504770
CC(=O)NC(Cc1c[nH]c2ccccc12)C(=O)N1CCN(c2cccc(C(F)(F)F)c2)CC1 (stereo not given) | . | -0.05
Cc1ccc(C)c(NC(=O)C(Cc2c[nH]c3ccccc23)NC(=O)OCc2ccccc2)c1 (stereo not given) | -0.48 | .
COc1ccccc1NC(=O)CSc1nc2c(oc3ccccc32)c(=O)n1Cc1ccc(F)cc1 | 3.3 | 1
CCCCC#CCCOC(=O)NNC(=O)/C=C/c1ccc(F)cc1Cl | 1.7 | .
O=C1C2C3CC4C5C3C1C5C1(OCCO1)C42 (stereo not given) | . | -0.6
O=C(O)c1ccccc1C(O)c1ccccc1 (stereo not given) | . | 0.35

Next part
SMILES | CapD inh | AID504770
CCOC(=O)c1sc(N2C(=O)c3ccccc3C2=O)c(C#N)c1C | 0.13 | -0.2
CC(C)COC(=O)CNc1n[nH]c(=S)[nH]c1=O | . | -0.35
COc1ccc(NC(=O)c2ccc(N3CCOCC3)nc2)cc1 | -0.3 | 0.95
CCOC(=O)C[N+](C)(C)Cc1ccccc1 | 26 | -0.15
N#CC(C(N)=S)=C1CCCC1 | -0.75 | -2
Cc1c(Cl)cccc1N1C(=O)CC(Sc2nnnn2-c2ccccc2)C1=O (stereo not given) | . | 0.5
CNC(=O)Oc1ccc(NC2=C(C(=O)OC)CSC2)cc1 | 0.54 | -0.7
CCCS(=O)(=O)c1ccc([N+](=O)[O-])cc1 | -0.17 | .
CCN1CCCC1CNC(=O)c1sc2nc3n(c(=O)c2c1C)CCCCC3 (stereo not given) | 0.11 | 0.35
CN(Cc1ccccc1)C(=O)COC(=O)c1cncc(Br)c1 | -0.46 | 0.4
CCC1COC(c2cccs2)=N1 (stereo not given) | . | -0.4
CN(C)c1ccc(C2N(Cc3ccccc3)CCC3CCCCN32)cc1 (stereo not given) | 0.5 | -0.7
COc1cc(Cl)c(C)cc1NC(=O)CNC(=O)C1CCCCC1 | . | -0.75
Cc1ccc(C)c(S(=O)(=O)N(C)Cc2cccs2)c1 | . | 0.45
O=C(NNc1nc2c(F)cccc2s1)C1=COCCO1 | . | 0.8
CCOc1ccc(NC(=O)c2oc3ccccc3c2NC(=O)COC)cc1 | -0.32 | -0.5
O=C(Sc1nc2ccccc2o1)c1ccccc1 | 0.41 | -1.4
CCOC(=O)c1cc(C)nc2ccc(Br)cc12 | -0.045 | .
O=C1c2ccccc2C(=O)N1CCCN1CCN(Cc2c(F)cccc2Cl)CC1 | 0.51 | -0.25
O=C(Nc1ccccc1)c1ccc(S(=O)(=O)N2CCCCC2)cc1 | -0.31 | 1.2
O=S(=O)(Nc1ccccc1NC1CCN(Cc2ccccc2)CC1)c1ccc(F)cc1 | -0.39 | -0.25
COC(=O)c1ccc(-c2ccco2)n1Cc1nc(-c2ccccc2F)oc1C | 8.6 | 0.4
O=[N+]([O-])c1ccc(-c2ccc(-c3nc(-c4c5ccccc5c(Cl)c5ccccc45)[nH]c3-c3ccccc3)cc2)cc1 | -0.25 | .
Clc1ccc(/C=N\N2CCN(c3ccccc3)CC2)cc1 | 0.15 | 1.6
Oc1ccc2ncccc2c1C(Nc1ccccn1)c1ccco1 (stereo not given) | 2.2 | 1.2
CNC(=O)NC(=O)c1cnccc1C(F)(F)F | 0.35 | -0.45
CCOC(=O)NNC(=S)Nc1ccc(Cl)cc1 | -0.095 | .
CC(C)(C)c1ccc(CSc2nc(-c3ccccc3)c(-c3ccccc3)[nH]2)cc1 | 21 | .
CCOc1ccc(NC(=O)CN(C)Cc2cc(=O)n3c(-c4ccccc4)csc3n2)cc1OCC | . | -0.7
COc1ccc(C2C(C(=O)Nc3ccc4c(c3)OCCO4)c3ccccc3C(=O)N2C)cc1 (stereo not given) | 0.11 | 0.55
Oc1ccc2cc(-c3nc(-c4ccc(Cl)cc4)cs3)c(=Nc3ccccc3)oc2c1 | -0.35 | .
CCOC(=O)Cn1ccc2nc(SC)ncc2c1=O | 0.97 | -0.35
Cc1cccc(NC(=S)NC2CC3C=CC2C3)c1 (stereo not given) | 0.08 | .
COCc1cc(C)nc(SCC(=O)NC2CCCCC2C)c1C#N (stereo not given) | 0.23 | -0.6
N#Cc1ccc(N2CCOCC2)cc1C#N | . | -0.65
CCN(Cc1ccncc1)C(=O)CSc1ccc2ccccc2c1 | -0.88 | -0.55
CCCc1ccc(NC(N)=S)cc1 | 0.44 | .
Cc1c(C(=O)O)oc2ccc(S(=O)(=O)N(CC(C)C)CC(C)C)cc12 | -0.13 | -0.55
Cc1cc(C)c(S(=O)(=O)NC(C)C2C3CC4CC(C3)CC2C4)c(C)c1 (stereo not given) | 4.1 | 0.5
CCOc1ccc(N(CC(=O)N2CCN(c3ccccc3OC)CC2)S(=O)(=O)c2ccc(Cl)cc2)cc1 | -0.07 | .
COC(=O)C1=C(C(=O)OC)SC2(S1)C(C(=O)OC)=C(C(=O)OC)SC1=C2c2cccc(OC)c2N(C(=O)Cc2ccccc2)C1(C)C | -0.8 | .
COc1ccc(C2=N/C(=C/c3cc(OC)c(OC)cc3OC)C(=O)O2)cc1Br | 0.71 | .
O=C(NCc1cccnc1)c1nn2c(C(F)(F)F)cc(-c3ccccc3)nc2c1Br | -0.49 | .
OC(COc1ccccc1)COc1ccccc1 | -0.005 | -0.7
CC(C)CC(=O)N=Nc1c(O)[nH]c2ccc(Br)cc12 | 0.28 | 0.5
NC(=O)Cc1nc(-c2cc3ccccc3oc2=O)cs1 | 70 | -1.2
O=C(NC1CCN(Cc2ccccc2Sc2ccc(Cl)cc2)C1)OCc1ccc(-c2ccccc2)cc1 (stereo not given) | -0.59 | .
CN1C2C=C(N(C(=O)c3ccc(Cl)cc3)c3ccccc3)CC1CC2 (stereo not given) | 0.57 | 0.45
COc1ccc(OC)c(N2C(N)=C(C#N)C(c3ccc(OC)c(O)c3)C3=C2CC(C)(C)CC3=O)c1 (stereo not given) | -0.055 | .
C#CC[N+]12CN3CN(CN(C3)C1)C2 | 0.14 | -2.4
Next results.
SMILES | CapD inh | AID504770
Oc1ccc(-c2nc(-c3ccc(C#Cc4ccccc4)cc3)c(-c3ccc(C#Cc4ccccc4)cc3)[nH]2)cc1 | 15 | .
COc1ccc(-c2nnc3ccc(SCc4ccccc4F)nn23)cc1OC | 0.7 | -0.2
CCC1(CC)N([O-])C(C)=C(c2ccccc2)[N+]1=O | . | -0.85
Oc1cccc(C=Nc2ccccc2N2CCOCC2)c1 | . | 0.05
Cc1ccc(-c2nnc(-c3cc(C)on3)o2)cc1 | -1.9 | 1.1
O=S(=O)(c1ccc(-c2ccccn2)s1)N1CCCC1c1ccc(F)cc1 (stereo not given) | 0.21 | 1.9
Cc1cc2nc3s/c(=C/c4cn(Cc5ccccc5)c5ccccc45)c(=O)n3c2cc1C | -0.54 | .
CCOC(=O)c1cc(-c2ccccc2)sc1NC(=O)CSc1nccn1C | 1.8 | 0.6
NC(=S)N/N=C/c1ccc(F)c(Cl)c1 | -0.49 | .
Cc1cc(C)c2c(=O)n(CC(=O)Nc3ccc(F)cc3C)sc2n1 | 0.34 | 1.2
Cn1ccnc1SCC(=O)c1ccc(Cl)cc1 | . | -0.35
Nc1scc[n+]1CC(=O)c1ccc(Cl)c(Cl)c1 | -0.34 | -0.65
Cn1c(/C=C(\C#N)C(N)=S)ccc1-c1ccc(Br)cc1 | -3 | 2.1
O=C(CSc1nnnn1Cc1ccccc1)Nc1ccccc1 | . | -0.3
CC1CN(c2nnc(-c3cccs3)c3ccccc23)CC(C)O1 (stereo not given) | . | -2.5*
CC(C)(C)N(Cc1ccccc1)C(=O)c1cccs1 | -0.04 | 2.3
c1ccc(OCc2nn3c(-c4ccccc4)nnc3s2)cc1 | -0.5 | 0.55
O=C(c1ccccc1)c1ccccc1C(=O)N1CCN(C2CCS(=O)(=O)C2)CC1 (stereo not given) | . | 0.25
Cc1ccccc1NC(=O)NC1(C(=O)N2CCC(C(N)=O)CC2)CCCCC1 | . | -0.85
NC(=O)C1CCCCN1C(=S)Nc1cccc(C(F)(F)F)c1 (stereo not given) | . | -0.25
CC(Oc1ccc(/C=C2/SC(=O)N(C)C2=O)cc1)C(=O)O (stereo not given) | -0.96 | -0.6
CCCc1cnc(N2CCCN(C(=S)Nc3cccnc3)CC2)nc1 | 2.5 | .
CC(=O)Nc1ccc(S(=O)(=O)N(C)CC(=O)NC2CCCc3ccccc32)cc1 (stereo not given) | . | 0
O=C(NCCCn1ccnc1)C12CC3CC(CC(C3)C1)C2 | . | -0.85
O=C(Cn1cc(C(=O)c2cccs2)c2ccccc21)Nc1ccccc1C(F)(F)F | 0.79 | 0.75
Cc1cn(C/C=C\c2ccccc2)c(=O)n(C/C=C/c2ccccc2)c1=O | -0.42 | 1.8
COc1cc(C(=O)N2CCCN3C(=O)c4ccccc4C23)cc(OC)c1OC (stereo not given) | -0.045 | -0.65
CCC(=O)Nc1sc2c(c1C(=O)Nc1ccc(C)cc1)CCC2 | 0.34 | .
CN1CCc2nc3ccncc3cc2C1 | 4.5 | .
CCOC(=O)c1cc(CC)sc1/N=C/C1C(=O)c2ccccc2C1=O | 4.1 | 0.6
COc1ccc(OCCn2c(N)nc3ccccc32)cc1 | 0.42 | -0.45
NC(=O)c1ccccc1NC(=O)COc1ccc2oc3c(c2c1)CCCC3 | -0.03 | -0.7
COc1ccc(F)c(CN2CCN(S(=O)(=O)c3cccc(Cl)c3Cl)CC2)c1 | -1.1 | .
C=CCn1c(SCC(=O)O)nnc1-c1sc2ccccc2c1Cl | -0.69 | -0.5
CCCN1C(=O)/C(=C\C(=O)c2cccs2)c2ccccc21 | -2.2 | -0.8
c1ccc(OCc2nc3ccccc3s2)cc1 | 0.81 | -0.35
CCOC(=O)c1sc2nc(N)c(C#N)c(-c3ccc(OC)c(OC)c3)c2c1N | -0.85 | .
Cc1cc(C)n(C(=S)CSc2nc(-c3ccc(F)cc3)cc(-c3ccco3)c2C#N)n1 | -0.29 | 2.2
COc1cccc2c1c(NC(=O)c1cc(C)oc1C)nn2C | -0.02 | 0.5
CCC(=O)Cc1nnc2c(Nc3ccc(Cl)cc3)nc3nonc3n12 | 6 | .
CN(C)c1ccc(C(=O)Nc2cc(C(F)(F)F)ccc2-n2cncn2)cc1 | 1 | 1.1
O=C(CN1CCCCC1)OCCCC1CCCCC1 | -0.14 | -0.3
O=C(NCC(c1cccnc1)N1CCOCC1)c1ccco1 (stereo not given) | 0.17 | -0.25
O=c1[nH]nc(-c2ccc(Cl)cc2)c2ccccc12 | 0.23&-0.42 | 0.6&-0.15
COC(=O)c1sccc1N1C(=O)C=C(C)C1=O | -0.14 | 0.8
CCN(CC)S(=O)(=O)c1ccc(C(=O)NCC(=O)OC)cc1 | . | 0.55
CCC(CO)NC1=CC(=O)CCC1 (stereo not given) | 0.55 | 1.4
O=S(=O)(Oc1ccc(Cl)c(Cl)c1)c1ccc(-c2ccc(S(=O)(=O)Oc3ccc(Cl)c(Cl)c3)s2)s1 | 43 | .
Cc1cccc(CC2(Cc3cccc(C)c3)C(=O)OC(C)(C)OC2=O)c1 | -0.13 | 0.1
COc1ccc(C(C)NCc2ccco2)cc1 (stereo not given) | . | -0.65
